SARS PLpro yeast = qHTS of Yeast-based Assay for SARS-CoV PLP; S. cerevisiae expressing SARS-CoV PLpro, growth rescue; control for the full effect not named in the record; Potency, µM (top dose mostly 32.9 µM), inactives show top-dose activity, positive = growth rescue; 0.19% of 330,000 active; AID 485353, 2010; also: 0% is about no effect; nearly all actives have a fitted effect of over 55% in size; growth read by luminescence after 48 h
RE007 growth inh = qHTS Assay for Inhibitors of the HIV-1 protein Vpr. S. pombe RE007 Vpr strain, BacTiter-Glo ATP luminescence, 24 h; control for the full effect not named in the record. Potency, µM (top dose mostly 92.2 µM), for inactives: at the top dose activity change, negative = less growth. 0.21% of 360,000 active. AID 651644, 2012; active = well fitted falling curve with a large enough effect; inconclusive = small, poorly fitted or top-dose-only effect; inactive = no such curve, though single readings can be large or run the other way;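 also: % is scaled to controls: 0 for no effect and ±100 for the full control effect; nearly all actives have a fitted effect of over 50% in size; the assay follows cell death caused by Vpr and the record does not say whether a fall means rescue or toxicity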
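Fission yeast strain RE007, carrying one chromosomally integrated HIV-1 vpr copy, was seeded at OD 0.01 in PMG+AL medium with 23 nL pinned compound. After 24 h at 30 °C and 99% humidity, viability was read by BacTiter-Glo luminescence.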
NS1 function inh = qHTS Assay for Inhibitors of Influenza NS1 Protein Function | S. cerevisiae slowed by influenza A NS1, growth recovery by OD600 | 0.4% of 270,000 active | Potency, µM (top dose mostly 46.1 µM), without a hit: top-dose activity, positive = more growth | AID 2326, 2010; also: actives are rising curves; nearly all actives have a fitted effect of over 50% in size
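OD600 was taken as the measure of yeast growth restored by compound in an NS1-expressing S. cerevisiae strain. Cells had been washed out of glucose medium and diluted 1:100 into galactose -URA medium, pH 6.0.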
LASV entry inh = qHTS for Inhibitors of binding or entry into cells for Lassa Virus | Potency, µM (doses to about 37.9 µM), for the others: top-dose activity change, negative = inhibition, most hits filed as inhibitors | Lassa virus pseudotype entry inhibition, cell reporter; control for the full effect not named in the record | 1.2% of 300,000 active; active means well fitted inhibition curve with a large enough effect; inconclusive means small, poorly fitted or top-dose-only effect, or effect the other way; inactive means flat fitted curve, though single readings scatter; tested in HEK293 cells; also: % is scaled to controls: 0 for no effect and ±100 for the full control effect; nearly all actives have a fitted effect of over 50% in size; luciferase read-out
StopGo reporter = High Throughput Screening for Foot and Mouth Disease Virus Antivirals; human cells with a luciferase reporter of 2A StopGo recoding; control for the full effect not named in the record; Potency, µM (titrated, usually from 57.9 µM), inactives show at the highest dose signal change, negative = less light; 1.2% of 410,000 active; active = well fitted falling curve with a large enough effect; inconclusive = small, poorly fitted or top-dose-only effect; inactive = no such curve, though single readings can be large or run the other way; tested in HEK293T cells; also: % is scaled to controls: 0 for no effect and ±100 for the full control effect; nearly all actives have a fitted effect of over 45% in size; luciferase light after 4 h
Cruzain Triton = qHTS Assay for Promiscuous and Specific Inhibitors of Cruzain (with detergent) | Cruzipain (Trypanosoma cruzi), P25779 | Potency, µM, for inactives: max response, negative = inhibition, hits mostly inhibitors | purified cruzain, Z-FR-AMC fluorescence, 0.01% Triton | AID 1478, 2009 | 0.43% of 200,000 active; active = well fitted curve in the direction sought with a large enough effect; inconclusive = small, poorly fitted or top-dose-only effect, or another doubt; inactive = no such curve, though single readings can be large; an effect the other way counts as inactive or inconclusive;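 also: plate controls were neutral wells for no effect and buffer without enzyme for full effect; nearly all actives have a fitted effect of over 40% in size; top concentration of the series not given in the record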
Target sequence (P25779 123-467 limits assumed): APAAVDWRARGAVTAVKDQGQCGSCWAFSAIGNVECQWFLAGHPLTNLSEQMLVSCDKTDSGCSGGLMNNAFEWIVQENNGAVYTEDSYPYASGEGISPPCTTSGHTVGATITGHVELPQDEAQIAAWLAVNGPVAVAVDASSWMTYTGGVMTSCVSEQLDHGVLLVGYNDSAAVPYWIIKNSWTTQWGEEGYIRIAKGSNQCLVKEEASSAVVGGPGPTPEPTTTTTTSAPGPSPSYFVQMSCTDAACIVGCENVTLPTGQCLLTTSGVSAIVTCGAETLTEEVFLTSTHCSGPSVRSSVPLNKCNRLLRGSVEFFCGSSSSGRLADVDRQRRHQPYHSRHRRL
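Z-FR-AMC hydrolysis (2 uM substrate) by cruzain (1.5 nM) monitored kinetically at ex 360/em 450 nm after 15 min room-temperature compound exposure; 0.01% Triton X-100, pH 5.5, 5 mM DTT.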
Marburg entry inh = qHTS for inhibitors of binding or entry into cells for Marburg Virus; Marburg virus pseudotyped entry inhibition, cell reporter; control for the full effect not named in the record; about a third of the inactives were read at about 46 µM; Potency, µM (doses to about 37.8 µM), for inactives: top-dose activity change, negative = inhibition, usual class: inhibitors; AID 540276, 2011; 1.8% of 300,000 active; active = well fitted inhibition curve with a large enough effect; inconclusive = small, poorly fitted or top-dose-only effect, or effect the other way; inactive = flat fitted curve, though single readings scatter; tested in HEK293 cells; about a fifth of its hits are not listed in these tables; also: % is scaled to controls: 0 for no effect and ±100 for the full control effect; luciferase read-out
Cruzain noTriton = qHTS Assay for Promiscuous and Specific Inhibitors of Cruzain (without detergent); 2.3% of 200,000 active; Potency, µM, inactives show max response, negative = inhibition, hits mostly inhibitors; Cruzipain (Trypanosoma cruzi), P25779; purified cruzain, Z-FR-AMC fluorescence, no detergent; active = well fitted curve in the direction sought with a large enough effect; inconclusive = small, poorly fitted or top-dose-only effect, or another doubt; inactive = no such curve, though single readings can be large; an effect the other way counts as inactive or inconclusive;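 also: plate controls were enzyme without inhibitor for no effect and buffer without enzyme for full effect; nearly all actives have a fitted effect of over 40% in size; top concentration of the series not given in the record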
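Detergent-free condition (0.00005% Triton X-100) in acetate buffer pH 5.5 with DTT. 1.5 nM enzyme and compound were pre-mixed 15 min, then 2 uM Z-FR-AMC substrate added; reaction progress from fluorescence change between first and third reads (60 s).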
* hit, by the source's call; u = inconclusive; x = no result given; & = joins results of further samples; [ ] = another dose, or the depositor's remark. Unless noted, calls follow the shape of the dose curve; as a rule, active means well fitted rising curve with a large enough effect; inconclusive means small, poorly fitted or top-dose-only effect; inactive means no such curve, though single readings can be large or run the other way. Potency is read from the fitted curve at half-maximal effect.

smiles | SARS PLpro yeast | RE007 growth inh | NS1 function inh | LASV entry inh | StopGo reporter | Cruzain Triton | Marburg entry inh | Cruzain noTriton
COC(=O)c1cc(C(=O)c2cc(F)ccc2O)cn2c(=O)c3c(C)c(C)sc3nc12 | -1% | -4% | -2% | x | -6% | x | x | x
COc1ccc(Nc2nnc(SC(C(=O)Nc3ccc(OC)c(Cl)c3)c3ccccc3)s2)cc1 (stereo not drawn) | -13% | -7% | 13% | -5% | 15% | -0.7% | u | 6.3µM*
C=CCNC(=O)COc1coc(CN2CCN(Cc3ccccc3)CC2)cc1=O | 1% | -1% | 19% | x | 3% | x | x | x
O=C(O)c1ccc(CSc2nc3ccccc3o2)cc1 | -8% | -15% | -69% | -3% | 9% | -0.5% | -16% | -9%
Cc1ccc(CN2CCN(C3CCN(C(=O)Nc4ccc(C)cc4Cl)CC3)C(=O)C2=O)cc1 | x | x | x | -10%[46.1 µM] | -9% | 0.2% | x | 11%
Cc1csc(C2=C(O)CN(c3ccc4c(c3)OCCOCCOCCOCCO4)C2=N)n1 | 7% | 9% | 11% | 0% | 20% | -1.5% | 4%&4% | -12%
CCCN1C(=O)c2[nH]nc(-c3cccc(OC)c3)c2C1c1ccccn1 (stereo not drawn) | x | x | x | 2%[46.1 µM] | -11% | 0.0% | 3%[46.1 µM] | 0%
CCOc1ccc(NC(=O)NCCN2CCN(c3cccc(C)c3C)CC2)cc1 | 3% | 2% | -1% | 4%[46.1 µM] | u | -1.6% | -9%[46.1 µM] | -3%
CCOc1ccc(CCNC(=O)CSCc2ccc(C)cc2)cc1OCC | -14% | -4% | -20% | u | u | -3.5% | 0% | 16%
CCn1c(=O)cc(OCC(=O)NCC2CCCO2)c2ccccc21 (stereo not drawn) | 1% | -4% | -17% | 15% | 17% | 5.3% | -2% | -1%
CNCC(=O)N1CCN(c2ncc(C(F)(F)F)cc2Cl)CC1 | -3% | 1% | x | 1% | -24% | x | -3%[46.1 µM] | x
O=C(COC(=O)c1cc(-c2ccco2)nc2ccccc12)NCc1ccccc1 | -2% | 2% | -11% | -2% | -12% | -6.7% | 3% | 8%
C=CCNC(=O)Nc1ccc2oc(C)nc2c1 | 3% | 5% | -11% | 15% | x | 1.3% | 2% | 1%
CCOc1ccccc1CNC(=O)C1CCN(c2nnc(C)c3c(C)n(-c4ccc(C)cc4)nc23)CC1 | 0% | 2% | -3% | -9%[46.1 µM] | u | -2.7% | x | -3%
C/C(=N/NC(=O)CNC(=O)C(c1ccccc1)c1ccccc1)c1ccco1 | 0% | 6% | -1% | 20%[46.1 µM] | -2% | x | -1%[46.1 µM] | x
O=C(CCc1nnc2ccc(NCc3ccccc3)nn12)N1CCC2(CC1)OCCO2 | 2% | 0% | 3% | x | 1% | x | x | x
CN(C)c1nc(OCCOC(=O)COc2ccc(Cl)cc2Cl)nc(N(C)C)n1 | -3% | 3% | -31% | 10% | -17% | -8.6% | u | u
CC1CC(C)CN(C(=O)CNS(=O)(=O)c2ccc(Br)s2)C1 (stereo not drawn) | 5% | -3% | 10% | 0% | x | 3.5% | -14% | -8%
CCC(=O)N1CCc2cc(Br)cc(S(=O)(=O)N3CCCC(C(=O)Nc4ccc(CC)cc4)C3)c21 (stereo not drawn) | x | x | x | u | 12% | -5.8% | u | -14%
CCOP(=O)(OCC)C(NC(=O)Nc1ccc(C)c(Cl)c1)c1ccccc1 (stereo not drawn) | 3% | 1% | -17% | u | -15% | -3.6% | u | 22%
O=C(COc1ccc(Cl)cc1)NCCc1csc(-c2cccc(F)c2)n1 | x | x | x | 21%[46.1 µM] | -18% | -9.7% | x | -2%
N#Cc1ccccc1NC(=O)CSc1cn[nH]n1 | 17% | 6% | 30% | 2%[46.1 µM] | 6% | x | -13%[46.1 µM] | x
Cc1cccc(C)c1NC(=O)Cn1nnc(S(=O)(=O)c2ccccc2)c1N | x | x | x | -2%[46.1 µM] | -10% | -0.9% | 6%[46.1 µM] | -5%
O=C(C1CCCO1)N(c1cccc(Cl)c1)C1C=CS(=O)(=O)C1 (stereo not drawn) | 6% | 6% | 3% | 17% | x | 2.7% | 9% | 1%
COc1ccccc1C(=O)NNC(=O)C(=O)NC(C)C | 0% | 2% | 1% | 0%[46.1 µM] | 3% | x | 4%[46.1 µM] | x
Cc1ccccc1C(=O)Nc1ccccc1N1CCCCC1 | 0% | 8% | -8% | -3%[46.1 µM] | -20% | x | u | x
CCOC(=O)n1c(=O)oc2cc(S(=O)(=O)N3CCCCC3)ccc21 | -27% | 15% | -15% | -21% | -17% | -0.3% | -5% | -5%
Cc1cc(CNC(=O)c2cc(COc3c(F)cccc3F)on2)nn1C | 1% | 38% | -3% | 0% | 17% | x | -5% | x
Cc1ccc(N)cc1NC(=O)CN1CCOCC1 | 9% | 9% | u | 16%[46.1 µM] | -27% | x | 1%[46.1 µM] | x
CC(=O)Nc1ccc(C(=O)NCCN2CCOCC2)cc1 | -1% | -4% | 5% | x | 5% | x | x | x
COC(C)(C)[C@H](O)COc1c2ccoc2cc2oc(=O)ccc12 | 19% | 5% | -11% | 5% | -5% | -4.1% | -21% | 5%
CC1=C(C#N)C(NC(=O)c2ccccc2Cl)(C(F)(F)F)C(=O)N1 (stereo not drawn) | -33% | -1% | 6% | -2%[46.1 µM] | -9%&-9% | 4.0%&2.4% | u | u
C=CCc1ccc(OCCCCN2CC(C)CC(C)C2)c(OC)c1 (stereo not drawn) | -1% | u | -7% | u | -23% | x | 7.1µM* | x
CC(=O)C(C(c1ccccc1)c1c[nH]c2ccccc12)[N+](=O)[O-] (stereo not drawn) | -3% | -2% | 7% | x | -17% | x | x | x
Cc1ccc(NC(=O)Cn2cc(C(=O)c3ccccc3)c3ccccc32)cc1 | x | x | x | u | u | -4.1% | u | -10%
CCOC(=O)C(CC)Sc1cc(C)nc2ccc(OC)cc12 (stereo not drawn) | 0% | -17% | x | 0% | -30% | x | -9% | x
Cn1c(=O)cc(SCC(=O)N2CCN(C(=O)c3ccco3)CC2)c2ccccc21 | -3% | 3% | 1% | -1% | 7% | 1.6% | 3% | -8%
O=C(CC1Sc2ncnn2C1=O)Nc1ccc(Br)cc1 (stereo not drawn) | -31% | u | -70% | x | -10% | -0.2% | x | u
Cc1noc(/C=C/c2ccccc2F)c1S(=O)(=O)N1CCC(C(=O)Nc2ccc(C#N)cc2)CC1 | x | x | x | u | u | -5.4% | x | -7%
O=S(=O)(Nc1ccc(S(=O)(=O)N2CCCCC2)cc1)c1cccs1 | 5% | 5% | -9% | 2% | 43%[activator] | -2.7% | -3%[46.1 µM] | -1%
O=C(Nc1cc(S(=O)(=O)N2CCCCCC2)ccc1OCC(F)(F)F)C1CCC1 | 16% | 6% | 5% | 3% | 4% | x | 1% | x
Brc1ccc2nc(-c3ccccc3)c(Nc3ccc4c(c3)OCO4)n2c1 | x | x | x | u | 10% | -2.7% | -17%[46.1 µM] | 2%
Fc1ccc(COc2cccc(CNCc3ccncc3)c2)cc1 | -1% | 8% | 0% | -11% | -22% | x | 6.3µM* | x
COc1ccc2c(C)cc(N3CCOCC3)nc2c1 | 1% | u | -4% | u | 50%[activator] | -1.7% | 27% | 6%
O=C1c2ccccc2CN1CCNS(=O)(=O)c1ccc2ccccc2c1 | 0% | 13% | 6% | -5% | 33%[activator] | 1.0% | 13% | -1%
CC(C)(C)Nc1c(-c2cccs2)nc2ccccn12 | 2% | -3% | -5% | -3% | u | x | -12%[46.1 µM] | x
Cc1cc(OCC(=O)N2CCOCC2)c(C(C)C)cc1Cl | 0% | 6% | 4% | -3% | -19% | -5.6% | 1% | u
C/C(=N\Nc1nnc(C)c(=O)[nH]1)C(=O)O | -4% | 12% | 1% | 5% | 8% | 8.4% | -14% | -6%
COc1ccc(-c2noc(C(C)n3nc(C)c([N+](=O)[O-])c3C)n2)cc1OC (stereo not drawn) | -4% | -10% | -70% | -19% | -29% | -4.5% | -6% | u
CCCCN(CC)CCCNC(=O)CC1Nc2ccccc2NC1=O (stereo not drawn) | -19% | -13% | 0% | 0% | -9% | 4.6% | -2% | -5%
O=C(Nc1ccccc1)N1CCCN(c2ccc(C(F)(F)F)cn2)CC1 | -1% | 20% | 1% | x | u | x | x | x
CCc1nn2c(=O)cc(COc3ccc(NC(=O)c4ccco4)cc3)nc2s1 | -10% | -6% | 6% | x | 15% | x | x | x
COc1cc(C(=O)N/N=C/c2sc(N3CCOCC3)nc2-c2ccccc2)cc(OC)c1OC | 4% | -9% | x | -11% | -8% | x | 15%[46.1 µM] | x
COc1ccccc1/C=C/[C@@H]1C[C@H]2CN(Cc3cccc(Cl)c3)C(=O)[C@]23CCCN13 | 1% | -12% | -2% | -10% | -4% | x | u | x
Cc1ccc(C(=O)N2CCN(CCNC(=O)C(=O)NC(C)C)CC2)cc1 | 0% | 1% | 1% | 11% | 46%[activator] | x | -8%[46.1 µM] | x
C#CCn1c(=NC(=O)c2cc(-c3cccs3)nc3ccccc23)sc2cc(S(N)(=O)=O)ccc21 | 9% | 10% | u | -1% | 0% | -0.6% | u | u
O=C(Nc1ccc(Br)cn1)c1ccc(Cl)s1 | -3% | -22% | -44% | u | 2% | x | u | x
S=C(c1cccs1)N1CCCC1 | 1% | 4% | 4% | -20% | 5% | 3.4% | 0% | 1%
CSc1cc(C)c(OCC(=O)Nc2c(C)nn(C)c2C)c(C)c1 | 3% | 1% | -12% | u | -27% | x | u | x
COc1ccc(-n2ncc3c2CC(C)(C)CC3NC(=O)CCCN2CCCC2=O)cc1 (stereo not drawn) | 5% | -3% | 7% | x | -3% | x | x | x

Source: PubChem BioAssay (National Center for Advancing Translational Sciences (NCATS))
